Compound activity (PubChem BioAssay)
Sa helicase inh: S. aureus DNA helicase inhibition; purified S. aureus helicase, fluorescence unwinding assay; about half of the hits fall short of the stated cut; inhibition, %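 (tested at about 80 µM)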; 120,000 compounds, 0.05% hits; AID 485395;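 active means both duplicates at 50% or more, or one of them with a favoured structure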;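 further: 0% = mean of negative control wells and 100% = mean of positive control wells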
MgrA-DNA mod: alters Staphylococcus aureus MgrA binding to DNA; fluorescence polarization; inhibition, %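 (about 10 µg/mL by stock and volumes)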; 84,000 compounds, 0.13% hits;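 active means above 50% in either of two replicates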;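 further: 0% = protein plus DNA without compound and 100% = DNA alone without protein; higher means less MgrA bound to DNA so lower polarization; one replicate is shown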
Active calls of the source: *; . = no result given. Not all compounds are listed; count on the stated rates, not on these rows.

SMILES	Sa helicase inh	MgrA-DNA mod
CC1CC(=O)c2c(F)c(F)cc3c(=O)c(C(=O)O)cn1c23 (configuration not stated)	.	0.7
COc1ccc(-c2c(C)oc3cc(OC(C)=O)ccc3c2=O)cc1	14	.
COc1ccc(-c2nn(CCC#N)cc2/C=N\NC(=O)c2ccccc2)cc1	4	.
C[C@]12CCC(=O)C=C1CCC1C2[C@@H](O)C[C@@]2(C)C1CC[C@]2(O)C(=O)CO (some centres not stated)	.	0.5
O=C1CCCc2cc(S(=O)(=O)N3CCCC(C(=O)N4CCCCC4)C3)ccc2N1 (configuration not stated)	-2	.
CCCNS(=O)(=O)c1ccc2c(c1)CC(C)N2C(=O)C1CCC1 (configuration not stated)	-24	.
CCCN(CC1CC1)C(=O)CSc1nnnn1-c1ccc(OC)cc1	19	.
O=C(COc1ccc2ccccc2c1)Nc1cccc(-c2nc3ncccc3o2)c1	12	-0.5
Cc1cc(O)cc(O)c1C(=O)Cc1cscn1	3	.
Cc1cc(NC(=O)N(C)C)nn1-c1ccccc1	.	-0.1
CC(=O)Nc1ccc(N)cc1	22	.
CCn1c(SCC(=O)Nc2ccccc2)nnc1-c1c[nH]c2ccccc12	7	.
CCOC(=O)Cc1cc(=O)oc2cc(OCC)ccc12	15	-2.4
CS(=O)(=O)NC(C(=O)O)c1ccccc1 (configuration not stated)	5	-4.7
CC(=O)N1CCN(C(=S)NC2CC3CCC2C3)CC1 (configuration not stated)	6	.
Oc1ccc2n[nH]nc2c1	1	0.8
O=C1CSc2ccc(C(=O)N3CCc4ccccc43)cc2N1	-6	.
Cc1nnc(SCC(=O)NC2CCCCC2)o1	0	-4.0
CCCn1c(SCc2nc(N)nc(Nc3ccccc3CC)n2)n[nH]c1=O	12	.
COc1cccc(OCC(O)Cn2c(Cc3ccccc3)nc3ccccc32)c1 (configuration not stated)	-3	.
Cc1c(C(=O)NN=C2CCCCCC2)nnn1-c1nonc1N	1	0.5
CSc1cc(/C=N/O)c(SC)s1	6	-1.0
O=C(NCc1ccccc1)C1CCN(Cc2cnn(-c3ccccc3)c2-n2cccc2)CC1	15	1.1
CN1/C(=C\C=N\NC(=O)Cn2cncn2)C(C)(C)c2ccccc21	-5	.
O=S1(=O)CC2SC(=S)N(CC3CCCO3)C2C1 (configuration not stated)	-5	.
CS(=O)(=O)N1CCC2(CC1)OCCN2S(=O)(=O)c1ccccc1	-11	.
O=C(NCc1ccc2c(c1)CCO2)c1cc(F)cc2c1OCOC2	18	.
CC(C)N1C(=O)S/C(=C/c2cc(Br)c(OCC(=O)O)c(Br)c2)C1=O	13	7.8
CC(OC(=O)C(c1ccccc1)c1ccccc1)C(=O)N1CCN(C(=O)c2ccco2)CC1 (configuration not stated)	12	.
NC(=O)c1cc(S(=O)(=O)N2CCCC2)cs1	10	.
O=C(O)CCC1CCCC(CCC(=O)O)C1=O (configuration not stated)	.	-0.7
CC(=O)N(Cc1ccc(Br)cc1)c1ccccc1C(=O)O	-16	.
O=S(=O)(c1ccc(-n2cnnn2)cc1)N(Cc1ccccn1)C1CC1	7	-28
Cc1ccc(C)n1CCC(=O)O	24	103*
O=C(c1cccc(S(=O)(=O)N2CCc3ccccc32)c1)N1CCCCC1CO (configuration not stated)	-16	.
CCC1CCCCN1C(=O)CSc1nc2c([nH]c3ccccc32)c(=O)n1-c1ccccc1 (configuration not stated)	6	-2.0
COc1cc(-c2nc3cc(Cl)ccc3o2)cc(OC)c1OC	0	0.1
Clc1ccccc1CSc1nccc(-c2ccco2)n1	.	-2.2
O=c1[nH]cnc2nc3c4ccccc4c4ccccc4c3nc12	9	-0.1
Cc1cccc(OC2CCS(=O)(=O)C2)c1 (configuration not stated)	3	-0.9
N#CC1=C(N)N=C(SCc2ccccc2)C(C(N)=O)C12CCCCC2 (configuration not stated)	8	-1.2
Cn1c(SCc2cccc(C#N)c2)nnc1C(F)(F)F	.	0.1
O=c1[nH]nc(C(F)(F)F)n2cccc12	.	-1.1
C=CCSc1nc(-c2ccc(OC)cc2)c(C#N)c(=O)n1CC=C	15	.
O=S1OCC(COc2cccc3ccccc23)O1 (configuration not stated)	14	-1.3
O=C(Cn1ncc2c([nH]c3ccccc32)c1=O)NCCC1=CCCCC1	7	1.0
CC(=O)N(C(C)=O)c1ncnc2sc3c(c12)CCCC3	.	2.5
N#Cc1cc2cc(Br)ccc2oc1=O	6	1.9
Cc1c(NC(=O)CSc2nnc(Cc3ccccc3)o2)c(=O)n(-c2ccccc2)n1C	4	-1.4
COc1ccccc1NC(=O)C1CC(=O)N(C)C(=Nc2ccccc2)S1 (configuration not stated)	0	0.8
Next compounds:
SMILES	Sa helicase inh	MgrA-DNA mod
COc1ccc(C(=O)CSC2=C(C#N)C(c3cccs3)CC(=O)N2)cc1 (configuration not stated)	8	.
Cc1ccc(N=Cc2ccc3ncccc3c2)c(Br)c1	15	-2.0
CCOc1nc(NC2CCCC2)nc(N2CCC(C)CC2)n1	4	-0.6
CCCc1ccc(C(=O)N2CCOCC2)cc1	8	0.2
CC(=O)N(c1ccccc1)C1CC(C)N(C(=O)C(C)C)c2ccccc21 (configuration not stated)	9	-2.3
CCCN1CCN(C(=O)c2c(C)nn(-c3ccccc3)c2Cl)CC1	1	.
COc1ccccc1/C=C/CN1CCN(Cc2ccccc2)CC1	2	-2.0
CCN1CCN(C(c2ccccc2)c2sc3ncnn3c2O)CC1 (configuration not stated)	15	.
CC1(C)C(c2ccccc2)=[N+]([O-])CN1O	.	0.3
CC(C)(C)C(=O)Nc1c(Cl)c(C2CC2)nn1-c1ccccc1	.	1.4
CCOC(=O)CCc1n[nH]c(=O)[nH]c1=O	-2	2.0
Cc1noc(C)c1COc1cccc(C(=O)NC2CCCCCC2)c1	7	.
O=C(Cn1cc(/C=N/NC(=O)c2ccc(Oc3ccc(O)cc3)cc2)c2ccccc21)NCc1ccco1	9	1.1
COc1ccc(CCNC(=O)c2c(C)cc(=O)oc2C)cc1OC	8	0.8
O=S(=O)(c1ccc(OCC(O)CNC2CC2)c(Cl)c1)N1CCOCC1 (configuration not stated)	-8	.
Cc1noc(C)c1CSc1ncccc1C(=O)Nc1ccnn1C1CCCC1	-11	.
CSc1ncccc1C(=O)NCc1ccc(F)cc1	2	-2.2
COC(=O)c1ccc(S(=O)(=O)NN2CCOCC2)n1C	.	-0.3
Cc1nc2cc(Nc3ccncc3)ccc2s1	9	0.4
COc1ccc(OCC(O)CC(=O)O)cc1 (configuration not stated)	0	4.7

Pulled by structure from above, 7 records:
SMILES	Sa helicase inh	MgrA-DNA mod
COc1ccc(OCC(O)CC(=O)O)cc1 (configuration not stated)	0	4.7
CCOC(=O)CCc1n[nH]c(=O)[nH]c1=O	-2	2.0
O=C(Cn1cc(/C=N/NC(=O)c2ccc(Oc3ccc(O)cc3)cc2)c2ccccc21)NCc1ccco1	9	1.1
Cc1nc2cc(Nc3ccncc3)ccc2s1	9	0.4
Cc1noc(C)c1CSc1ncccc1C(=O)Nc1ccnn1C1CCCC1	-11	.
CSc1ncccc1C(=O)NCc1ccc(F)cc1	2	-2.2
COC(=O)c1ccc(S(=O)(=O)NN2CCOCC2)n1C	.	-0.3

Next section
SMILES	Sa helicase inh	MgrA-DNA mod
COc1ccc2nc(/C(C)=N/O)sc2c1	1	.
COC(=O)c1cc(NC(=O)CN2C(=O)c3ccccc3C2=O)cc(C(=O)OC)c1	0	.
O=C(NCCc1ccccc1)C1C2C=CC3(CN(Cc4cccs4)C(=O)C13)O2 (configuration not stated)	2	.
Cc1ccc(S(=O)(=O)NC(=O)NCC2CCCO2)cc1 (configuration not stated)	-7	.
CN(C)/C=C1\C(=O)N(C)N=C1c1ccccc1O	.	2.7
COC(=O)c1c(NC(=O)CC2Sc3ccccc3NC2=O)sc2c1CCCC2 (configuration not stated)	-3	.
CCc1nn(CC(=O)N2CCCCCC2)c(=O)c2cc3sccc3n12	0	.
CS(=O)(=O)c1ccccc1C(=O)Nc1cccc2ncccc12	-12	.
Cc1nc(NCc2ccco2)[nH]c(=O)c1CCC(C)C	29	-0.9
O=C1CSCC(=O)N1Cc1ccc(Cl)c(Cl)c1	.	0.8
Cc1c2n(c3ccccc13)C/C(=C\c1ccccc1)C2=O	.	1.6
COc1cc(OC)c2c(c1)ncc1c(C)nn(-c3ccccc3)c12	16	-0.4
COc1ccc(NC(=O)/C=C/C(=O)O)cc1OC	.	-2.3
CNc1nc2c(c(=O)n(C)c(=O)n2C)n1CC(O)COc1ccccc1C (configuration not stated)	15	.
CCCn1c(SCC(=O)NCCc2ccccc2)nc2c(oc3ccccc32)c1=O	2	.
O=C(ON1C(=O)c2ccccc2C1=O)c1ccc(NC(=O)c2ccco2)cc1	6	0.5
CCCCN(C)C(=O)C1CCN(Cc2ccc(OCC)cc2)CC1	7	-3.6
O=C(O)c1c2c(nc3ccccc13)CCCC2	-4	-1.7
CCN(CC)C(=O)CCCn1nc(C)n2c(cc3sccc32)c1=O	-3	.
CC1(C)OC(=O)C(=CNc2ccccc2F)C(=O)O1	-5	.
CC(=O)Nc1nc(Cn2nc(C(=O)O)c3ccccc3c2=O)cs1	13	.
O=C(CN1CCN(S(=O)(=O)c2ccccc2)CC1)Nc1ccc2c(c1)CCC2	-1	.
O=C(CN1CCOCC1)Nc1scc(-c2ccccc2)c1C(=O)N1CCOCC1	-6	.
COc1cc(C(=O)O)c(N)c(OC)c1OC	.	-0.8
Cc1ccc(NC(=O)COC(=O)c2ccc[nH]c2=O)c(S(=O)(=O)N2CCOCC2)c1	-15	.
Cc1cc(-c2nc(-c3ccc(Cl)cc3)cs2)no1	.	2.5
Cc1ccc2c(c1)-c1onc(C(=O)N3CCCCC3)c1CO2	-5	.
O=[N+]([O-])c1ccc(-c2csc(-c3cccnc3)n2)cc1	.	-2.6
COc1ccc(NC(=O)CN2CCN(S(=O)(=O)c3cccs3)CC2)cc1Cl	0	.
Cc1ccccc1N(CC(=O)Nc1ccccc1N1CCN(C)CC1)S(C)(=O)=O	1	.
COc1ccc(OCCC(=O)Nc2nnc(C3CC3)s2)cc1	-4	.
CCCCC[C@H](O)/C=C/[C@H]1C(=O)C=C[C@@H]1C/C=C\CCCC(=O)O	.	-2.0
CCC(=O)Nc1cc2c3c(c1)C(C)C(=O)N3CCC2 (configuration not stated)	10	.
COc1ccc2c(c1)c(CC(=O)Nc1ncccc1C)c(C)n2C(=O)c1ccc(Cl)cc1	12	-1.2
CN(C)CCCN1C(=O)C(=O)/C(=C(/O)c2ccccc2)C1c1ccccc1 (configuration not stated)	-18	.
CCn1c(SCC(=O)c2ccccc2)nnc1-c1ccc(OC)cc1	-12	.
C=CCn1c(SCC(=O)N(C(C)C)C(C)C)nc2scc(-c3ccco3)c2c1=O	-5	.
C(=N\c1ncccn1)/c1ccncc1	4	0.6
Brc1ccc(SCCc2ccncc2)cc1	4	.
CCOC(=O)C1CCN(S(=O)(=O)c2ccccc2)CC1	7	0.1
O=C1NC2(Cc3ccccc3C2)Nc2ccccc21	0	5.2
O=C(O)CCC(=O)CCN1CCCCC1	-1	-6.0
CCc1noc(C)c1C(=O)NCc1ccc(C(=O)OC)cc1	17	.
CCOC(=O)c1ccccc1NC(=O)Cn1c(=O)n(Cc2ccco2)c(=O)c2ccccc21	-10	.
O=C(c1cc(-c2ccccc2)on1)N(Cc1ccccc1)c1ccccc1	8	1.5
C=CCN1C(=O)/C(=N\N=C\c2c(C)nn(-c3ccccc3)c2C)c2ccccc21	8	.
CCCOc1ccc(C2NC(=O)NC(C)=C2C(=O)OCc2ccc(OC)cc2)cc1 (configuration not stated)	.	-1.1
Clc1cccc(Cl)c1OCCCn1ccnc1	-19	-3.4
Cc1ccc(-n2nc(C(=O)O)c(/C=C/c3ccc(Cl)cc3Cl)c(C#N)c2=O)cc1C	14	19
CCOC(=O)C1CCCN(C(=O)c2ccccc2F)C1 (configuration not stated)	-20	1.9
Remaining list, next part
SMILES	Sa helicase inh	MgrA-DNA mod
CCOC(=O)C(C#N)C1(c2ccccc2)CCOC(C)(C)C1 (configuration not stated)	18	.
Nc1ccn(Cc2ccc(F)cc2)n1	18	8.2
CCOC(=O)CC1C(=O)NCCN1C(=O)c1cc2c(=O)n3ccccc3nc2s1 (configuration not stated)	12	.
O=C(Nc1ccc(F)cc1)C(c1ccccc1)N1CCN(c2ccccc2F)CC1 (configuration not stated)	28	.
O=C(Nc1ccc(S(=O)(=O)N2CCOCC2)cc1)C(F)(F)C1(F)OC(F)(F)C(F)(F)C1(F)F (configuration not stated)	-23	.
O=C(Nc1ccccc1-c1nc2ccccc2s1)c1ccc(Cl)cc1	.	2.2

Part of the list above, with each value named:
molecule: Nc1ccn(Cc2ccc(F)cc2)n1
  Sa helicase inh = 18 | MgrA-DNA mod = 8.2

molecule: O=C(Nc1ccc(S(=O)(=O)N2CCOCC2)cc1)C(F)(F)C1(F)OC(F)(F)C(F)(F)C1(F)F (configuration not stated)
  Sa helicase inh = -23 | MgrA-DNA mod = .

molecule: O=C(Nc1ccc(F)cc1)C(c1ccccc1)N1CCN(c2ccccc2F)CC1 (configuration not stated)
  Sa helicase inh = 28 | MgrA-DNA mod = .

molecule: CCOC(=O)C(C#N)C1(c2ccccc2)CCOC(C)(C)C1 (configuration not stated)
  Sa helicase inh = 18 | MgrA-DNA mod = .

Single records, as listed above.
O=C(Nc1ccc(F)cc1)C(c1ccccc1)N1CCN(c2ccccc2F)CC1 (configuration not stated) is listed as Sa helicase inh = 28; MgrA-DNA mod = .
Nc1ccn(Cc2ccc(F)cc2)n1 is listed as Sa helicase inh = 18; MgrA-DNA mod = 8.2
